Bioassay records as filed in PubChem BioAssay.
HSD17B inhib = inhibitors of human HSD17B10 dehydrogenase | Q99714 | recombinant HSD17B10, NADH fluorescence kinetic; many of its hits are not listed in these tables | Potency, µM (top dose mostly 57.1 µM), inactives show at the highest dose activity change, negative = inhibition, actives largely listed as inhibitors | 7.6% of 75,000 active | AID 893; active means well fitted inhibition curve with a large enough effect; inconclusive means small, poorly fitted or top-dose-only effect; inactive means no such curve, though single readings can be large or run the other way;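 further: the protocol describes HADH2 (HSD17B10) and not the HSD17B4 of the title; nearly all actives have a fitted effect of over 70% in size; most hits overshoot -100% by far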
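Enzyme plus compound, 15 min room temperature; substrate mix added (NAD+ 1 mM, beta-hydroxybutyryl-CoA 90 uM final); plates read kinetically for NADH fluorescence. HADH2 was His-tagged, E. coli-derived, 20 nM.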
Starred values were filed as active, the others as inactive; u = inconclusive; & = joins results of further samples; [ ] = dose if it differs, or a comment. On the % scale 0 is the no-effect control and ±100 the full control effect; potency means the concentration at half of the fitted maximal effect. A portion of the library (hit frequency here may not be typical).

SMILES	HSD17B inhib
CC1CCCN(S(=O)(=O)c2ccc3c(c2)CCN3C(=O)C2CCC2)C1 (stereo not drawn)	-3%
CC(=O)C1=C(O)C(=O)N(CCN(C)C)C1c1ccc(Cl)cc1 (stereo not drawn)	-6%
COc1cccc2sc(Nc3nc(C)c(C(C)=O)s3)nc12	-7%
C[C@H]1COC(=O)[C@H]2CCCN2C(=O)[C@@H](C)COC(=O)[C@H]2CCCN2C1=O	-3%[11.4 µM]
Cc1cnc(C(=O)Nc2ccccc2C(=O)N2CCOCC2)cn1	11%
O=C(NCC1CCCO1)c1ccc(NC(=O)C2CC=CCC2C(=O)O)cc1 (stereo not drawn)	4%
Cc1ccc(SCc2cn3c(C)csc3n2)cc1	-1%
NC(=O)c1ccc(-c2ncc(-c3ccccc3)o2)cc1	13µM*
Cc1occc1C(=O)N1CCN(C(c2ccccc2)c2ccccc2)CC1	0%
COc1ccc(OC)c(N2Cc3cc(C)c(C)cc3C2)c1	-20%
Cc1c(C(=O)N2CCN(c3ccc(C(F)(F)F)cn3)CC2)oc2ccccc12	8%
O=S(=O)(c1ccccc1)N1CCC2(CC1)CN(Cc1nccs1)C2	7%
O=C(NCc1ccccc1)c1ccc2c(c1)OCCO2	u
CCOC(=O)[C@@]12C[C@@H]1/C(=N/O)c1ccccc1O2	-4%&10%
COCCCNC(=O)c1ccc(NS(C)(=O)=O)cc1	-22%
CN(C)c1nc(Oc2ccc(=O)[nH]n2)nc(N2CCCCC2)n1	10%
COc1cc2cc[n+]3cc4c(OC)c(OC)ccc4cc3c2cc1OC	-6%
Cc1ccc(S(=O)(=O)NCCN2CCOCC2)cc1C	2%
Cc1ccc(C2SCC(=O)N2Cc2cn3ccsc3n2)o1 (stereo not drawn)	-11%
COC(=O)C1=C(C)C(c2cccs2)NC(=O)N1C (stereo not drawn)	2%
CC1CC(NC(=O)CCn2c(=O)oc3ccccc32)CC(C)(C)C1 (stereo not drawn)	4%
COc1ccc(-c2nn(C)c(=O)c3ccccc23)cc1CNC(=O)c1ccco1	32µM*
Nc1nc(-c2ccco2)cs1	-7%
COC(=O)NC1(C(F)(F)F)C(=O)NC(C)=C1C(=O)OC (stereo not drawn)	-4%
C=CCn1c(SCc2nc(N)nc(N3CCCCC3)n2)nnc1-c1ccco1	-2%
Continued:
SMILES	HSD17B inhib
COc1cc(S(=O)(=O)N2CCN(c3ccccc3F)CC2)c(OC)cc1Cl	u
Cc1noc(C)c1C(=O)N1CCC2(CCCN(Cc3ccccc3)C2)CC1	7%
CCC(=O)Oc1ccc(C/C(=N\O)c2ccc(O)cc2O)o1	u
O=C1c2ccccc2C(Nc2ccc3c(c2)OCCO3)N1Cc1ccco1 (stereo not drawn)	-13%
CC(Sc1nnnn1C)C(=O)Nc1ccc(N2CCOCC2)cc1 (stereo not drawn)	10%
O=C(O)CC1(c2ccccc2)C(=O)c2ccccc2C1=O	-1%
CCN(CC)CCCNC(=O)C1CCC(=O)N(c2ccc(OC)cc2)C1c1ccc(F)cc1 (stereo not drawn)	7%
Cc1ccccc1-c1nc(CS(=O)CC(=O)NCCN2CCN(Cc3ccccc3)CC2)c(C)o1 (stereo not drawn)	3%
CC(=O)c1c(C)[nH]c(C(=O)NC2CCCCC2)c1C	-8%
FC(F)(F)c1cc(CN2CC[C@@]3(CCCNC3)C2)cc(C(F)(F)F)c1	5%
Cc1ccccc1NC(=O)NCCN1C(=O)C2C3C=CC(C3)C2C1=O (stereo not drawn)	6%
Cc1cc(N2CCC(C(=O)N3CCN(c4cccc(C)c4C)CC3)CC2)n2ncnc2n1	-6%
Cc1cc(NC(=O)Cn2c(=O)c3c(ncn3CC(C)C)n(Cc3ccccc3)c2=O)no1	-12%
Cc1ccn2cc(CNS(=O)(=O)c3ccc4c(c3)OCCO4)nc2c1	12%
Cc1ccc(OCC(=O)NCc2ccccn2)c(Br)c1	2%
CCOC(=O)C1=C(C)OC(N)=C(C(=O)OCC)C1c1cccnc1 (stereo not drawn)	3%
Cc1cccc2nc(CSCc3ccco3)cn12	-24%
COc1ccc(NC(=O)C2CCN(S(=O)(=O)c3cccc4cccnc34)CC2)cc1OC	7%
CC(=O)Nc1nc(C=C(Cl)Cl)cs1	u
COc1ccc(-c2csc(N(CC3CCCO3)C(=O)c3ccco3)n2)cc1 (stereo not drawn)	10%
CN1CCN(Cc2cc(=O)oc3ccc(Cl)cc23)CC1	6%
NCCC(=O)N[C@H](Cc1cnc[nH]1)C(=O)O	4%
CC(C)C(=O)Nc1cccc(C(=O)Nc2nccs2)c1	-1%
NC(N)=N/N=C\c1ccc(C2CCNCC2)cc1	0%[11.4 µM]
O=C(O)c1ccc2c(c1)C(=O)N(c1cc(C(=O)O)ccc1Br)C2=O	3%
Continuation.
SMILES	HSD17B inhib
C=CCN(c1ccc(C(=O)N2CCCC2)cc1)S(C)(=O)=O	18%
O=C(Oc1ccccc1OC(=O)N1CCOCC1)N1CCOCC1	11%
COc1cc(C)nc(OCCNC(=O)COc2ccc(Cl)cc2Cl)n1	9%
O=C(CC1Oc2ccccc2NC1=O)NCCCN1CCN(Cc2ccccc2)CC1 (stereo not drawn)	3%
COc1ccc(C)cc1S(=O)(=O)N(CC(=O)O)c1ccc(C)cc1	3%
COC(=O)C(Cc1ccc(O)cc1)NC(=O)C(C)Oc1ccccc1 (stereo not drawn)	3%
CCOc1ccc(C(=O)COC(=O)CC)cc1	0%
CCCCNC(=O)CSc1cc(=O)n(C)c2ccccc12	25µM*
O=C(C1CCCN(S(=O)(=O)c2cnc[nH]2)C1)N1CC(=O)N(CCc2ccccc2)C(=O)C1 (stereo not drawn)	4%
Cc1n[nH]c(C)c1S(=O)(=O)N1CCN(C(=O)c2ccco2)CC1	7%
CC(=O)N1CCC(Nc2ccc(C)cc2)CC1	-5%
COc1ccc2c(c1)CCc1c(C(=O)N3CCCCCC3)noc1-2	-19%
Cc1cc(NC(=O)c2cc3n(n2)C(C(F)(F)F)CC(c2ccco2)N3)no1 (stereo not drawn)	8%
O=C(O)[C@H](CCc1ccccc1)N1C(=O)c2ccccc2C1=O	5%[11.4 µM]
CCC1(C)Cc2c(c(=O)n(-c3ccccc3)c3ncnc(N)c23)CO1 (stereo not drawn)	u
C[N+](C)(C)CCC(=O)c1cccc2ccccc12	-24%
O=C(CCc1nc(-c2cccs2)no1)Nc1cnc2ccccc2c1	-22%
COc1ccc(OC2C(O)COC2/C=C/C#Cc2ccccc2)cc1 (stereo not drawn)	-3%[11.4 µM]
CCOC(=O)c1c(C2CC2)csc1NC(=O)CSCc1c(C)noc1C	u
Cn1c(=O)[nH]c(=O)c2c1nc(NCCc1ccccc1)n2CC(O)COc1ccccc1 (stereo not drawn)	1%
Oc1ccc(C(c2nnnn2C2CCCC2)N2CCc3ccccc3C2)cc1 (stereo not drawn)	32µM*
CCOC(=O)C1CCN(C(=O)c2cn(-c3ccccc3)nc2-c2cccnc2)CC1	3%
Cc1cc(Cl)ccc1OCCCC(=O)NO	5%
CCc1ccc(-c2nc(CSCC(=O)N3CCN(c4ncccn4)CC3)c(C)o2)cc1	u
Cc1csc(NC(=O)CCn2c(=O)sc3ccccc32)n1	2%

In another format: entries from further up
smiles | HSD17B inhib
O=C(C1CCCN(S(=O)(=O)c2cnc[nH]2)C1)N1CC(=O)N(CCc2ccccc2)C(=O)C1 (stereo not drawn) | 4%
Cc1n[nH]c(C)c1S(=O)(=O)N1CCN(C(=O)c2ccco2)CC1 | 7%
CC(=O)N1CCC(Nc2ccc(C)cc2)CC1 | -5%
COc1ccc2c(c1)CCc1c(C(=O)N3CCCCCC3)noc1-2 | -19%
Cc1cc(NC(=O)c2cc3n(n2)C(C(F)(F)F)CC(c2ccco2)N3)no1 (stereo not drawn) | 8%
O=C(O)[C@H](CCc1ccccc1)N1C(=O)c2ccccc2C1=O | 5%[11.4 µM]
CCC1(C)Cc2c(c(=O)n(-c3ccccc3)c3ncnc(N)c23)CO1 (stereo not drawn) | u
C[N+](C)(C)CCC(=O)c1cccc2ccccc12 | -24%
O=C(CCc1nc(-c2cccs2)no1)Nc1cnc2ccccc2c1 | -22%
COc1ccc(OC2C(O)COC2/C=C/C#Cc2ccccc2)cc1 (stereo not drawn) | -3%[11.4 µM]
CCOC(=O)c1c(C2CC2)csc1NC(=O)CSCc1c(C)noc1C | u
Cn1c(=O)[nH]c(=O)c2c1nc(NCCc1ccccc1)n2CC(O)COc1ccccc1 (stereo not drawn) | 1%
Oc1ccc(C(c2nnnn2C2CCCC2)N2CCc3ccccc3C2)cc1 (stereo not drawn) | 32µM*
CCOC(=O)C1CCN(C(=O)c2cn(-c3ccccc3)nc2-c2cccnc2)CC1 | 3%
Cc1cc(Cl)ccc1OCCCC(=O)NO | 5%
CCc1ccc(-c2nc(CSCC(=O)N3CCN(c4ncccn4)CC3)c(C)o2)cc1 | u
Cc1csc(NC(=O)CCn2c(=O)sc3ccccc32)n1 | 2%

Remaining list, next part
SMILES	HSD17B inhib
CCN(CC)CCNC(=O)Cn1nc(Cc2ccccc2)c2ccccc2c1=O	-5%
COc1cc(-c2cc(=O)c3c(O)c(OC)c(OC)c(OC)c3o2)cc(OC)c1OC	0%
CN(Cc1ccccc1)C(=O)CCNS(=O)(=O)c1ccc2c(c1)oc(=O)n2C	-6%
O=C(NCCCCNC(=O)c1ccco1)c1ccco1	6%
O=C(CCS(=O)(=O)c1cccc2nonc12)N1CCCc2ccccc21	-3%
CCn1cc(C(=O)NCc2cccnc2)c2cc(OC)c(OC)cc2c1=O	5%
O=C(O)CC(Cc1ccccc1)c1ccc2c(c1)OCO2 (stereo not drawn)	-2%
COc1cc2c(cc1O)C(Cc1ccc(O)cc1)N(C)CC2 (stereo not drawn)	7%
NC(=O)c1c(NC(=O)C2CCCO2)sc2c1CCC2 (stereo not drawn)	10%
CCCOc1ccc(/C(O)=C2/C(=O)C(=O)N(CCCOC)C2c2cccnc2)cc1 (stereo not drawn)	1%
CC(=O)c1cc(-c2ccccc2)[nH]c1N1CCOCC1	3%
CCN(CC)c1ncnc2c1cnn2C	0%
CC(C(=O)NCCCN1CCOCC1)n1cccc1C(=O)c1ccccc1 (stereo not drawn)	-3%
CCn1c(=O)c(=O)[nH]c2cc(C(=O)NC3CCCc4ccccc43)ccc21 (stereo not drawn)	u
CCN(C#N)c1nc(N(C)C)nc(N(C)C)n1	5%
COC(=O)/C(=C1\OC(=O)C(c2ccccc2)C1=O)c1ccccc1 (stereo not drawn)	-12%
CCC(=O)c1cc(F)c(N2CCN(C(=O)Cc3ccccc3)CC2)cc1C	u
CCS(=O)(=O)N1CCCC(C(=O)NCCCN(C)Cc2ccccc2)C1 (stereo not drawn)	3%
Cc1cccc(N2CCN(C(=O)c3ccc(NS(=O)(=O)c4c(C)noc4C)cc3)CC2)c1C	7%
O=C(NCC1CC1)[C@@H]1C[C@H]1[C@@H](NP(=O)(c1ccccc1)c1ccccc1)c1ccccc1	12%
CN(CC(=O)Nc1ccc(Cl)cc1)CC(=O)Nc1cc(Cl)ccc1C#N	-5%
CC(=O)Nn1c(-c2ccccc2)cc2ccccc21	32µM*
CC(=O)Nc1c(O)nc(SCC(=O)Nc2ccc(C(C)=O)cc2)[nH]c1=O	12%
CCC(C)(C(=O)NC1CCCC1)N(CC1CCCO1)C(=O)c1ccc2c(c1)OCO2 (stereo not drawn)	14%
CS(=O)(=O)N(CCc1ccccc1)CC(=O)N1CCN(Cc2ccccc2)CC1	-11%
Carrying on:
SMILES	HSD17B inhib
Cn1cc(/C=N/n2cnc3scc(-c4ccccc4)c3c2=O)c2ccccc21	u
COc1ccc(-n2c(Cn3c(=O)sc4ccccc43)nnc2SC)cc1	1%
O=C(CN1CCCN(S(=O)(=O)c2ccc(Br)cc2)CC1)Nc1ccc2cn[nH]c2c1	9%
COc1cc(C2C(C(=O)OC(C)C)=C(C)Nc3ncnn32)cc(OC)c1OC (stereo not drawn)	-5%
Cn1c(=O)[nH]c(=O)c2c1nc(Br)n2CC(O)c1ccccc1 (stereo not drawn)	2%
C[N+]1(C)CCc2cc(O)c(O)cc2[C@H]1Cc1ccc(O)c(O)c1	3.2µM*
C=CCOc1ccc(C2/C(=C(\O)c3c(C)[nH]c(C(=O)OC)c3C)C(=O)C(=O)N2CCN(C)C)cc1 (stereo not drawn)	-4%
CCN(CC)C(=O)CN1CCC(n2c(C)nc3cc(C(F)(F)F)ccc32)CC1	-2%
C=CCn1c(SCc2csc(C)n2)nc2scc(-c3ccc(C)o3)c2c1=O	-13%
COC(=O)c1cc(OC)c(OC)cc1NC(=O)CCc1ccc(C)o1	25%
Cc1cccc(-n2c(SCCC(=O)O)nnc2-c2cccs2)c1C	25µM*
c1csc(CCNc2ncnc3sc4c(c23)CCC4)c1	-12%
CC(=O)NS(=O)(=O)c1ccc(N)cc1	2%
O=C(C1CC1)N1CCc2cc(Br)cc(S(=O)(=O)N3CCN(c4ccccn4)CC3)c21	8%
CC1CN(C(=O)COC(=O)c2cccs2)CC(C)O1 (stereo not drawn)	7%
CN1CCCCCC1=NC1=C(C#N)CCCC1	12%
Cn1c(Br)nc2c1c(=O)n(CC(O)COc1ccccc1)c(=O)n2C (stereo not drawn)	0%
COC(=O)c1ccc(NC(=O)CSc2nnc(Cc3cccn3C)n2-c2ccc(F)cc2)cc1	7%
O=C(c1nnc(Cc2ccc(Cl)cc2)o1)N1CCOCC1	0%
COc1ccc(NC(=O)CSc2nc3sc(C)c(C)c3c(=O)n2Cc2ccco2)cc1	2%
Cc1ccc2c(c1)CCCN2C(=O)c1cccs1	-2%
COc1cc(OC)c(OC)cc1CNCCNC(=O)c1nonc1N	17%
CC(O)CNC(=O)C1CCN(Cc2ccc(OCc3ccccc3)cc2)CC1 (stereo not drawn)	-3%
COc1ccc(-c2cnc(N)nc2-c2ccc(OC)cc2O)cc1	-15%
CCCCCCn1c(CN2CCC(C)CC2)nc2c1c(=O)n(C)c(=O)n2C	5%
O=C(/C=N/O)NCc1cccnc1	2%
Cc1ccc2cc(CN(CCCN3CCOCC3)C(=O)NC3CCCCC3)c(=O)[nH]c2c1C	u
